Source: PubChem (ICCB-Longwood Screening Facility, Harvard Medical School)
GIV-Gai inh – inhibitors of GIV peptide binding to Galpha-i3, primary screen, biochemical, fluorescence polarization, FITC-GIV GBA peptide, rat Galphai3; 90 min; stronger effect = lower value; scaled: aluminum fluoride 0%, vehicle 100%; percent of control (FP), % (no concentration beside the values); hit rate 0.42% among 210,000;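 active means replicate mean at 85% of control or lower, very high polarization wells dropped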;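 further: wells of about 15 µL received 100 nL stock; the first replicate is given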
Target sequence (P08753 whole entry, looked up): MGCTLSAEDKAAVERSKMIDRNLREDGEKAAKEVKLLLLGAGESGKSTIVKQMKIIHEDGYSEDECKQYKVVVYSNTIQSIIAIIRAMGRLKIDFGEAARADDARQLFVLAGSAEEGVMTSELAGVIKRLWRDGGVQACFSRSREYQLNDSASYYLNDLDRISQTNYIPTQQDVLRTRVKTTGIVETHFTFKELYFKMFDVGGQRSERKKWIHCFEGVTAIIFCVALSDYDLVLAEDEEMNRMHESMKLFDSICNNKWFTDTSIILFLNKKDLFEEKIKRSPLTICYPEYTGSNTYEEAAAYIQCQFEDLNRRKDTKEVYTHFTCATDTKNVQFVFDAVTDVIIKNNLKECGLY
HCMV UL50-53 inh – inhibitors of HCMV UL50-UL53 interaction, biochemical, HTRF; hit rate 0.15% among 190,000; normalized percent inhibition; inhibition, % (concentration not given with the values);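 active means both replicates at 50% or more, plus weaker picks with an unusually low signal ratio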;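 further: stock transfer was 100 nL into about 20 µL; 0% = negative control wells and 100% = wells with untagged competitor protein; inactives centre near -12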
Sa growth 42C – S. aureus growth inhibition at 42 and 30 °C, primary screen, LtaS inhibitor project, RN4220, two temperatures; hit rate 0.53% among 170,000; OD600, 20 h, 42 °C; stronger effect = lower value; relative growth, % (no concentration beside the values);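 active means growth at 42 °C up to 50% and 20 or more points under that at 30 °C, or under 10% at both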;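 further: 300 nL library stock went into each well; scaled to the means of positive and negative controls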
Sa growth 42C second temp – recorded beside Sa growth 42C, whose call it bears; relative growth, %; measured here: growth at 30 °C;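 optical density after 20 h as mean of two plates; 100% = untreated growth and lower means inhibition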
* hit, by the source's call; · = no result given; & = joins results of further samples.

SMILES	GIV-Gai inh	HCMV UL50-53 inh	Sa growth 42C	Sa growth 42C second temp
CC(CN(C)C)CN1c2ccccc2CCc2ccccc21 (configuration not stated)	99	-26&-10&-23	93	89
Nc1cc(OC(=O)c2ccccc2Br)nn1S(=O)(=O)c1ccc(F)cc1	103	-9	·	·
Cc1cccc(N2CCN(C(=O)CSCc3ccc(F)cc3)CC2)c1C	98	·	118	84
CCN(CC)S(=O)(=O)c1cc(-c2ccc(=O)n(C(C)C(=O)Nc3cccc(OC)c3)n2)ccc1C (configuration not stated)	103	3	·	·
CCOc1cc(-n2cnnn2)c(OCC)cc1NC(=O)c1cn(-c2ccc(F)cc2)nn1	108	-23	85	79
Cc1ccc(C)c(SCC(=O)OCC(=O)N2CCCc3ccccc32)c1	·	-40	97	78
CC(=O)c1ccc(N2CCN(C(=O)Nc3ccc(C(C)C)cc3)CC2)cc1	99	9	88	84
COc1cccc(Nc2ncc(C#N)c(N)n2)c1	98	-114	110	63
Cc1ccsc1C=Nc1ccc(O)cc1	109	-4	94	82
CCCNc1nc2ccccc2n2c(C)nnc12	104&100	-16	112	90
O=C(O)C1C2C=CC(C2)C1C(=O)N1CCN(C(c2ccccc2)c2ccccc2)CC1 (configuration not stated)	97	·	102	82
O=c1c2ccccc2cnn1-c1nc2ccccc2[nH]1	·	-19	116	89
CCOc1ccccc1C(=O)N1CC(=O)Nc2ccc(C)cc2C1c1ccccc1 (configuration not stated)	103	-4	95	97
CC(C)(CNC(=O)c1cc2ccccc2cc1O)N1CCOCC1	·	-54	96	93
O=C1c2ccccc2C(=O)N1SSN1C(=O)c2ccccc2C1=O	103	-41	83	71
CCOC(=O)c1[nH]c(C)c(S(=O)(=O)N2CCN(CC)CC2)c1C	105	5	·	·
C#CCn1c(=NC(=O)c2ccc(S(=O)(=O)N3CCCC3)cc2)sc2cc3c(cc21)OCO3	104	-17	94	89
O=C(C1CCCCC1)N1CCN(c2cccc3[nH]ccc23)CC1	110	2	92	96
c1ccc(Nc2nnc(-c3ccc(-c4nc5ccccc5s4)s3)o2)cc1	·	-10	103	79
O=C(c1cc(-c2ccccc2)n[nH]1)N1CC=C(c2ccccc2)CC1	99	6	95	107
NC(=O)N=Nc1c(O)[nH]c2ccccc12	·	-65	93	95
Cc1cc2c(cc1S(=O)(=O)N1CCCC1C(=O)N1CCN(c3ccccc3)CC1)OC(C)C(=O)N2 (configuration not stated)	99	4	·	·
Cc1ccc2c(=O)cc(C(=O)Nc3c(C(=O)c4ccccc4)oc4ccccc34)oc2c1C	100	4	88	95
COCCN1C(=O)/C(=C/c2c(N3CCN(CCO)CC3)nc3ccccn3c2=O)SC1=S	-29*	-97	·	·
COc1ccc(CNC(=O)c2cnn3c2NC(c2ccc(C)cc2)CC3C(F)F)cc1OC (configuration not stated)	95	-8	127	104
Continuation:
SMILES	GIV-Gai inh	HCMV UL50-53 inh	Sa growth 42C	Sa growth 42C second temp
CCCn1c(=O)c2ccccc2n2c(=O)n(CC(=O)c3ccccc3)nc12	103	-35	·	·
O=C(CSc1nnc2n(Cc3cccs3)c(=O)c3sccc3n12)NC1CCCCC1	106	15	·	·
COC(=O)c1ccccc1N(C)C(=O)c1cc2ccccc2oc1=O	99	-2	101	88
CSc1nc(-c2ccc(Cl)cc2)nc(N)c1C#N	105	-25	102	89
CC(OC(=O)c1ccccc1NCc1ccco1)C(=O)Nc1ccc(Cl)cn1 (configuration not stated)	·	-10	120	90
CCCCN(C)c1cc(C(=O)O)c2cc(NC(=O)c3ccccc3OC)ccc2n1	115	-91	·	·
Cc1c(/C=N/NC(=O)Cc2cccs2)cc(C#N)n1C	·	-12	86	94
CCN(CC)c1ccc(NC(=O)c2cccn2-c2nnc(N3CCCCC3)s2)c(C)c1	98	·	78	65
CC(NC(=O)c1ccc(Br)cc1)C1CCCO1 (configuration not stated)	105	-3	109	95
CC1CCN(C(=O)CN2C(=O)C(C)(C)c3ccccc32)CC1	101	17	·	·
COc1ccc(NC(=O)CC2C(=O)N(c3cccc(C)c3)C(=O)N2Cc2cccnc2)cc1 (configuration not stated)	104	·	114	94
O=C(NCCc1ccccc1)C1CC(=O)N(CCc2ccccc2)C(=Nc2ccc(F)cc2)S1 (configuration not stated)	99	·	109	83
COc1ccc(-c2nc3c(c(SC)n2)COC(C)(C)C3)cc1	96	·	90	92
COCCNC(=O)CSc1nc(-c2cc(OC)c(OC)c(OC)c2)[nH]c1-c1ccc(Cl)cc1	105	-7	90	75
C#CCOC(=O)Nc1cnccc1C(F)(F)F	102	-27	86	77
Cc1ccccc1-n1c(SCc2nc(N)nc(N)n2)nc2sc3c(c2c1=O)CCCCC3	·	-31	83	94
CCCN1C(=O)CCS(=O)(=O)c2ccccc21	98	-18	99	86
CCOc1ccc(-n2c3nc4ccccc4nc3c3c(=O)n(CCOC)cnc32)cc1	·	-17	104	92
CCC(CC)C(=O)N1CCN(c2ccccc2)CC1	·	-12	106	89
Cc1c(N=C/C=C/c2ccccc2)c(=O)n(-c2ccccc2)n1C	101	4	94	87
O=C(NCc1ccccc1Cl)c1cnc(N2CCCCC2)c2ccccc12	106	·	107	93
Cc1cccc(NCc2csc(-c3ccccc3)n2)c1	·	-3	75	102
COc1ccc(-c2noc(CSc3ccc(-c4ccc(Br)cc4)nn3)n2)c(OC)c1	111	-19	·	·
COc1ccccc1NC(=O)c1ccccc1F	105	-21	91	70
CCOC(=O)c1cccc(NS(=O)(=O)c2c(C)nc3sc(C)cn3c2=O)c1	107	·	115	78
The list goes on.
SMILES	GIV-Gai inh	HCMV UL50-53 inh	Sa growth 42C	Sa growth 42C second temp
CC(=O)NCCc1ccc(C(=O)O)cc1	·	12	105	99
COc1cccc(CNC(=O)c2nn(C)c3c2CSc2ccccc2-3)c1	99	-16	117	97
N#CCC(=O)c1cc(-c2ccccc2)c(C(F)(F)F)s1	114	1	108	66
CCCCNC(=O)CSc1nc(-c2ccc(OC)cc2)cc(C(F)(F)F)n1	102	-43	96	91
COc1ccc(-n2nc(C(=O)Nc3cccc(C)n3)c3c4ccccc4n(C)c3c2=O)cc1Cl	104&106	-25&3	107	92
Cc1c(C(=O)N2CCOCC2)cc(C(C)(C)C)n1-c1ccccc1	106	-2	100	89
O=C(c1ccc(=O)[nH]c1)N1CCSC1=NCc1ccccc1	·	-17	94	86
O=c1nc2n(-c3ccc(Br)cc3)c3cccc(Cl)c3cc-2c(=O)[nH]1	102	·	77	85
NNC(=O)CSc1n[nH]c(=O)[nH]c1=O	·	-26	80	90
CC(Oc1ccccc1)C(=O)Nc1ccc(C(=O)OCc2cc(=O)n3ccsc3n2)cc1 (configuration not stated)	104	·	80	85
CCOc1ccc(NC(=O)c2cc(=O)c3ccc(C)c(C)c3o2)cc1	103	-21	110	85
CCOC(=O)c1c(CN2CCCCC2)n(-c2ccccc2)c2ccc(OC(C)=O)cc12	·	2	94	84
COC(=O)CNC(=O)c1c(-c2ccccc2)noc1C	103	7	105	81
C=CCc1c(C)nc(N)[nH]c1=O	107	·	110	95
CC1CC(C)CN(CC(C)(C)NS(=O)(=O)c2ccc(Cl)cc2)C1 (configuration not stated)	·	-19	98	94
CCCCCCCC/C=C\CCCCCCCC(=O)NCc1ccc(O)c(OC)c1	102	-11&-9&-9&-7	·	·
CCC(=O)N1CCc2cc(CNC(=O)Nc3ccccc3Cl)ccc21	100	·	89	81
COc1ccc(N2C(=O)CC(c3cn(Cc4ccccc4)c4ccccc34)C2=O)cc1 (configuration not stated)	118	·	135	96
CC(=O)Nc1cccc(-n2nnc(SCC(=O)c3cc(-c4ccccc4)no3)n2)c1	107	-32	86	79
O=c1ccc2cc(S(=O)(=O)N3CCCCC3)ccc2[nH]1	100	·	90	87
COc1cc(OC)cc(-c2nc3ccccc3c(=O)n2NC(=O)c2cc(OC)c(OC)c(OC)c2)c1	102	-8	·	·
CNC(=O)c1nn(-c2ccccc2C)nc1CO	109	-15	·	·
CCCCS(=O)(=O)Nc1cc(C)cc(C)c1	117	-2	99	87
Cc1ccc2c(c1)N(CC(=O)NCc1cccc(Cl)c1)C(=O)c1cccnc1O2	99	·	108	88
CCCn1c(=N)c(C(=O)NC2CCCC2)cc2c(=O)n3cccc(C)c3nc21	104	-131	93	88

Looked up one by one from above:
SMILES	GIV-Gai inh	HCMV UL50-53 inh	Sa growth 42C	Sa growth 42C second temp
CC(=O)c1ccc(N2CCN(C(=O)Nc3ccc(C(C)C)cc3)CC2)cc1	99	9	88	84
CCN(CC)S(=O)(=O)c1cc(-c2ccc(=O)n(C(C)C(=O)Nc3cccc(OC)c3)n2)ccc1C (configuration not stated)	103	3	·	·

A run of entries from further up, as a working copy:
SMILES	GIV-Gai inh	HCMV UL50-53 inh	Sa growth 42C	Sa growth 42C second temp
COC(=O)CNC(=O)c1c(-c2ccccc2)noc1C	103	7	105	81
C=CCc1c(C)nc(N)[nH]c1=O	107	·	110	95
CC1CC(C)CN(CC(C)(C)NS(=O)(=O)c2ccc(Cl)cc2)C1 (configuration not stated)	·	-19	98	94
CCCCCCCC/C=C\CCCCCCCC(=O)NCc1ccc(O)c(OC)c1	102	-11&-9&-9&-7	·	·
CCC(=O)N1CCc2cc(CNC(=O)Nc3ccccc3Cl)ccc21	100	·	89	81
COc1ccc(N2C(=O)CC(c3cn(Cc4ccccc4)c4ccccc34)C2=O)cc1 (configuration not stated)	118	·	135	96
CC(=O)Nc1cccc(-n2nnc(SCC(=O)c3cc(-c4ccccc4)no3)n2)c1	107	-32	86	79
O=c1ccc2cc(S(=O)(=O)N3CCCCC3)ccc2[nH]1	100	·	90	87
COc1cc(OC)cc(-c2nc3ccccc3c(=O)n2NC(=O)c2cc(OC)c(OC)c(OC)c2)c1	102	-8	·	·
CNC(=O)c1nn(-c2ccccc2C)nc1CO	109	-15	·	·
CCCCS(=O)(=O)Nc1cc(C)cc(C)c1	117	-2	99	87
Cc1ccc2c(c1)N(CC(=O)NCc1cccc(Cl)c1)C(=O)c1cccnc1O2	99	·	108	88
CCCn1c(=N)c(C(=O)NC2CCCC2)cc2c(=O)n3cccc(C)c3nc21	104	-131	93	88

(cont.)
SMILES	GIV-Gai inh	HCMV UL50-53 inh	Sa growth 42C	Sa growth 42C second temp
Cc1ccc(C2=NS(=O)(=O)N(C)C(C(=O)NCc3ccccn3)=C2)cc1	99	-66	91	89
CN(C)CCN=Cc1c(O)n(Cc2ccccc2)c(=O)c2ccccc12	·	-26	98	63
CCC(C)NC(=O)C1CCN(C(=O)c2sccc2-n2cccc2)CC1 (configuration not stated)	107	2	99	94
Cc1nn(C(=O)c2ccco2)c(-c2ccccc2)c1Sc1ccccc1	99	-26	60	59
CCCN(c1ccccc1OC)S(=O)(=O)c1cc(Br)cnc1N	104	·	107	92
O=S(=O)(c1ccccc1)C1c2ccccc2Oc2ccccc21	104	·	115	97
Nc1cc(-c2ccco2)nn1-c1cc(C(F)(F)F)cc(C(F)(F)F)c1	102	0	94	77
CCOC(=O)c1ccc(NC(=O)c2c(NC(C)=O)sc3c2CCC(C)C3)cc1 (configuration not stated)	106	-18	97	90
Cc1ccc2c(CN3CCN(C(=O)c4ccc(Br)cc4)CC3)cc(=O)oc2c1	100	8	106	73
Cc1ccc(N(Cc2cccs2)C(=O)COc2cccc(C)c2)cc1	101	-9	106	85
CC1CCc2c(sc3nc(-c4cc5cc(Br)ccc5oc4=O)[nH]c(=O)c23)C1 (configuration not stated)	102	2	108	101
O=C(CSc1nc2ccccc2[nH]1)NCCc1ccccc1	·	2	114	89
O=C1NC(c2ccccc2)=N/C1=C\c1ccccc1	99	-19	98	98
Cc1ccc(NC(=O)c2ccco2)c(OCc2cc(=O)n3cc(C)sc3n2)c1	103	·	91	87
O=C1/C(=C/NC2CC2)S(=O)(=O)N(Cc2cccc(F)c2)c2ccsc21	106	-8	87	75
O=C1CCC(=O)N1c1ccc(S(=O)(=O)NCCCN2CCN(Cc3ccccc3)CC2)cc1	108	-10	101	95
Cc1ccc(-c2nnc3c4ccccc4c(C)nn23)cc1NC(=O)c1ccccc1Cl	102	-30	81	94
CC(C)(C)c1ccc(-c2ncccc2O)cc1	104	-34	102	80
CC(=O)N1CCc2nc3sc(C(=O)c4ccc(F)cc4)c(N)c3c(C(F)(F)F)c2C1	143	-147	95	84
CCc1nnc(NC(=O)CCN2C(=O)NC3(CCCC3)C2=O)s1	·	9	112	96
CCOC(=O)c1oc2ccc(S(=O)(=O)n3nc(-c4cc(OC)c(OC)c(OC)c4)cc3N)cc2c1C	101	-10	88	95
O=C1CN(C(=O)COc2ccc(Cl)cc2Cl)C(c2ccc(F)cc2)c2cc(F)ccc2N1 (configuration not stated)	104	-4	78	49
O=C(c1ccc2nonc2c1)N1CCN(c2ccccc2)CC1	98	-20	96	81
COc1ccccc1NC(=O)CCN1C(=O)c2ccccc2Sc2ncccc21	104	·	111	98
Cc1ccc(N2CC(NC(=O)c3ccccc3Br)CC2=O)cc1 (configuration not stated)	94	·	94	88
CCN(CC)C(=O)CSc1nc2c(c(=O)n(C)c(=O)n2C)n1Cc1ccccc1C	103	-30	91	83
Cc1nc2c(c(C)nn2-c2ccccc2)c(C)c1CCC(=O)N1CCc2ccccc21	100	0	96	90
CC(NC(=O)NCc1noc2ccccc12)c1ccccc1 (configuration not stated)	105	·	112	88
COc1ccc(Cl)cc1NC(=O)N1CCN(S(=O)(=O)c2ccc3c(c2)NC(=O)C(C)O3)CC1 (configuration not stated)	106	-16	·	·
COc1ccc(-c2cnc3ncnn3c2N)cc1	100	-27	·	·
